Assay outcomes as filed in PubChem.
Vif A3G: HIV-1 Vif–A3G interaction blockers – biochemical, TR-FRET, GST-Vif 1-94, biotin-A3G peptide, dose response retest, primary screen (AID 1117319); inhibition, %, or IC50 in µM where a hit was titrated; 0.57% of 260,000 active; TR-FRET GST-Vif / biotin-A3G peptide binding; higher % means a stronger effect; test concentration not given here; strong numbers were not always called active;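 active means above the screen mean plus three standard deviations and confirmed in dose response; inconclusive means results disagree or hit not tested in dose response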;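 further: Vif residues 1-94 fused to GST binding biotinylated APOBEC3G peptide 110-148; 0% = full assay without inhibitor and 100% = GST in place of GST-Vif; retest series ran down from 100 µM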
MLL AF4-AF9 inh: MLL-AF4/AF9 protein interaction inhibition; 0.47% of 350,000 active; AlphaScreen, biotin-AF4 peptide binding to FLAG-AF9; P42568; inhibition, % at 10 µM;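 active means every replicate reaching a set inhibition limit, whatever the replicate mean, cut at about 25% in these data; inconclusive means mean inhibition reaches that limit but some replicates miss it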;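 further: 0% = plate neutral control median and 100% = total signal loss; the record names both 10 and 1 µM as test concentration; the first replicate is given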
Target sequence (P42568 whole entry, looked up): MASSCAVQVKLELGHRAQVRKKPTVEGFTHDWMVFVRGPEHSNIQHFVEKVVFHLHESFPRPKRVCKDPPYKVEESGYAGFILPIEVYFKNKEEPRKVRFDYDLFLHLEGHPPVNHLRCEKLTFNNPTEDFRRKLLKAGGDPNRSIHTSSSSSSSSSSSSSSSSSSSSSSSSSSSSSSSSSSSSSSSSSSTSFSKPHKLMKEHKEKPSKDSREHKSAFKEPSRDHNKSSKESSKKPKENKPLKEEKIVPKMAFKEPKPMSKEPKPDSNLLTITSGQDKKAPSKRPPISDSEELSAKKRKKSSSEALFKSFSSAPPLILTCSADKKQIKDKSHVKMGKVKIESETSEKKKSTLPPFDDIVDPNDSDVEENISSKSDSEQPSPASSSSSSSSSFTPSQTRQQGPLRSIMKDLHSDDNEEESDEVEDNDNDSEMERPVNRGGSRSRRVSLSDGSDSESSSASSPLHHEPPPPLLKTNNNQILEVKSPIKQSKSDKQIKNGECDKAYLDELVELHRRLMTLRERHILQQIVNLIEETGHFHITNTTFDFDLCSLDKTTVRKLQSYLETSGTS
RanGTP-Imp inh: inhibitors of RanGTP-importin-beta interaction, primary screen, biochemical, FRET, CFP-Ran, YFP-importin-beta, homogeneous. cell-free CFP-Ran/YFP-importin-beta FRET ratio. inhibition, % (test concentration not listed). AID 2216. 1.1% of 300,000 active;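 active means most replicates above 15%; inconclusive means exactly half above 15%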;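 further: 0% = DMSO wells and 100% = Ran loaded with GDP instead of GTP; wells of about 40 µL received 100 nL stock; the first replicate is given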
LANA-H2B inh: blocks KSHV LANA binding to histone H2A/H2B; cell-free LANA-H2A/H2B peptide, fluorescence polarization; inhibition, % (no concentration beside the values); 0.6% of 320,000 active; AID 2629; in the data active means inhibition mostly above about 10%, no sharp cut-off; inactive means mostly below about 6.7%;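 further: stock transfer was 7.5 nL into about 10 µL; 0% = median of vehicle wells and 100% = median of positive control wells; one replicate is shown; the record names a cut of 25% in any replicate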
Calb FLC: C. albicans growth modulation with fluconazole; 0.57% of 300,000 active; AID 1979; C. albicans CaCi-2 (fluconazole-resistant clinical isolate) + fluconazole, Alamar Blue growth, 48 h; growth inhibition, % (concentration not given with the values);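 active means most replicates above 75%; inconclusive means exactly half above 75%; inactive means most below 75%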;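 further: all wells also contain fluconazole at 8 µg/ml as a sub-toxic cotreatment; 0% = median of DMSO wells and 100% = median of geldanamycin control wells; wells of about 8 µL received 7.5 nL stock; the first replicate is given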
Beta cell apopt: beta cell apoptosis inhibition; INS-1E cytokine-induced death, ATP luminescence, 48 h; percent of positive-control rescue, neutral wells zero; protection from apoptosis, % (concentration not given with the values); 0.8% of 300,000 active;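 active means all replicates at 75% or more, or half of them and the mean; inconclusive means half reach 75% but not the mean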;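 further: 0% = cytokine-treated negative control wells and 100% = positive control rescue; higher means more ATP so stronger rescue from cytokine killing; wells of about 40 µL received 100 nL stock; the first replicate is given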
T cruzi inh: blocks replication of Trypanosoma cruzi; inhibition, % (concentration not given with the values); 1.4% of 300,000 active; AID 1885; T. cruzi beta-gal in NIH3T3, luminescence, 90 h;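 active means mean inhibition across valid replicates above about 55%, limit read from the data; inconclusive means mean below that limit but half or more replicates reach it; inactive means mean below it, under half of replicates reach it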;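 further: signal also drops with host cell toxicity which is not excluded here; 0% = plate median of DMSO wells and 100% = zero luminescence signal; higher percent means less beta-gal luminescence so fewer parasites; stock transfer was 50 nL into about 50 µL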
A1 inh: inhibitors of the anti-apoptotic protein A1, read as caspase activation. MEF A1-2A-BIM cells, Caspase-Glo 3/7 luminescence, 3 h; percent of clofoctol response, vehicle zero. caspase activation, % (test concentration not listed). 0.066% of 330,000 active;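 active means over half of replicate activation scores above 10%, or exactly half above 10 with the replicate mean above 10; inconclusive means replicate mean below 10 yet half the replicates above 10; inactive means over half of replicates below 10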;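 further: wells of about 30 µL received 50 nL stock; many hits fall short of the cut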
Numbers without * were called inactive; u = inconclusive; x = not tested or not shown; & = joins results of further samples.

SMILES | Vif A3G | MLL AF4-AF9 inh | RanGTP-Imp inh | LANA-H2B inh | Calb FLC | Beta cell apopt | T cruzi inh | A1 inh
O=C(CSCc1ccc(F)cc1)N1CCN(c2ccccc2)CC1 | 4% | x | 8.2 | -3.0 | 4 | -3 | -24 | -0.2
Cc1ccc2c(c1)/C(=C/c1ccco1)C(=O)N2 | 6% | 12 | 8.5 | -2.8 | -4 | 3 | 0 | -0.2
CC(OC(=O)[C@@H]1CCCN1C(=O)c1cccs1)C(=O)Nc1cccc([N+](=O)[O-])c1 (stereo partly drawn) | -5% | 2.9 | x | 5.3 | x | -2 | x | -0.4
CC(=O)N1CCN(C(=O)c2ccc(S(=O)(=O)Nc3ccccc3F)cc2)CC1 | -5% | 1.8 | x | -2.5 | x | -2 | x | -0.5
CC(C)c1cccc(C(C)C)c1OC(=O)NC(=O)c1c(F)cccc1F | x | 0.5 | 5.0 | 1.1 | -9 | 8 | 19 | -0.1
COc1ccc(CC(=O)Nc2ccc(N3CCCCC3)cc2)cc1 | u | 4.0 | -1.8 | 8.2 | -3 | -7 | 1 | -1.9
COc1cc(NC(=O)COc2ccc(Br)cc2)ccc1NC(=O)C(C)C | -12% | -0.8 | 1.2 | 1.1 | -9 | 2 | -4 | 0.3
Cc1ccc(SC(C)C(=O)Nc2ccccc2-c2ccccc2)cc1 (stereo not drawn) | 0% | x | 0.3 | -0.2 | 3 | -6 | -13 | -0.1
COC(=O)Cc1c(C)nc(SCc2ccccc2)[nH]c1=O | -5% | -2.3 | 0.0 | 0.7 | -2 | -4 | -7 | 0.6
CC(C)Sc1nc2c(cnn2-c2ccc(F)cc2)c(=O)[nH]1 | 4% | -4.4 | 2.6 | 0.7 | 3 | -8 | 4 | -0.1
Cc1nc(CCNC(=O)CC2C(=O)NCCN2Cc2ccc(F)cc2)sc1C (stereo not drawn) | -1% | -4.0 | 2.8 | -6.6 | 2 | -6 | 3 | 0.4
O=C(CSc1nc2cc(Cl)c(Cl)cc2[nH]1)c1ccc2c(c1)OCO2 | -4% | -4.4 | -2.3 | -7.5 | -2 | -16 | -5 | 0.3
O=C(c1cc2ccccc2o1)N(C1CC1)C1(C(=O)Nc2ccccc2)CCCC1 | 3% | 1.8 | 1.6 | -7.9 | -2 | 3 | 14 | 0.4
Cc1ccc(OC(=O)c2cc3ccccc3o2)cc1 | 2% | x | 2.3 | 0.5 | 1 | -5 | -8 | 0.1
COc1cc(-n2c(=O)c3ccccc3n(CC(=O)c3ccccc3)c2=O)cc(OC)c1OC | 7% | -27 | -5.1 | -3.5 | 1 | 5 | -9 | 0.1
CC(C)c1ccc(OC(=O)c2cccc(S(=O)(=O)N3CCN(C)CC3)c2)cc1 | x | 6.8 | u | 3.1 | -3 | 0 | 8 | -0.6
O=S(=O)(c1ccc(F)cc1)N1CCN(C(=S)NCCc2ccccc2)CC1 | x | -0.3 | 4.1 | 8.4 | 7 | -2 | 16 | -0.3
Cc1cccc(Nc2nc(NCCCN3CCOCC3)nc(N)c2[N+](=O)[O-])c1 | 18% | 6.1 | -0.2 | 2.6 | 10 | -6 | -10 | 0.1
CCOC(=O)COc1ccc(N)cc1CC(NC(C)=O)(C(=O)OCC)C(=O)OCC | 9% | -9.3 | -1.3 | 1.1 | 21 | -2 | -4 | -0.2
COc1ccc(C(=O)Nc2c3c(nn2-c2ccc(Cl)cc2)CS(=O)(=O)C3)cc1 | x | 0.6 | 6.6 | 0.5 | 3 | 1 | 7 | -0.5
COc1cc(OC)cc(C(=O)N[C@H](C(=O)Nc2nnc(C3CC3)s2)C(C)C)c1 | u | -1.5 | 4.1 | -1.3 | -2 | 6 | 0 | -0.2
COc1ccc(-n2c(=S)[nH]c3cc(C(=O)N4CCN(c5ccccc5)CC4)ccc3c2=O)c(OC)c1 | x | -2.7 | 1.3 | -2.4 | -2 | x | -8 | -1.8
CCOc1c(S(=O)(=O)NC2CC(C)(C)NC(C)(C)C2)ccc(Cl)c1Cl | x | -0.2 | 3.2 | 1.0 | 3 | -8 | -5 | 0.3
O=C(COc1ccccc1)Nc1ccc2c(c1)nc1n2CCSC1 | -12% | x | 0.8 | 1.5 | -11 | 3 | -9 | 0.0
Cc1ccccc1-n1nnnc1SCC(=O)Nc1ccc(S(=O)(=O)N2CCCC2)cc1 | -5% | x | 1.1 | -1.9 | 0 | 7 | 9 | -0.7
Cc1ccc(NC(=O)CSCC(=O)NNC(=O)c2nn(C)c(=O)c3ccccc23)cc1 | -3% | -9.7 | x | 0.9 | x | 2 | x | -5.9
O=C(Nc1ccc(Br)cc1)/C(=C/c1cccc([N+](=O)[O-])c1)NC(=O)C1CCCCC1 | 7% | x | 5.7 | -0.5 | 11 | 2 | u | 0.7
CCc1ccc2[nH]c(=O)c(C(c3nnnn3CCOC)N3CCN(c4ccc(F)cc4)CC3)cc2c1 (stereo not drawn) | 16%&9% | x | 2.5 | 4.8 | 24 | -6 | 11 | -0.2
O=C(O)CSC1CC(=O)N(c2ccc(Br)cc2)C1=O (stereo not drawn) | x | -9.0 | 1.6 | 3.0 | 2 | -1 | -7 | 0.4
CCCn1nc2cc(C(=O)NCc3ccc4c(c3)OCO4)ccc2c1OCC | 78% | 0.0 | 1.8 | -1.9 | 6 | -5 | -1 | -0.6
Cc1ccc(NC(=O)c2ccccc2NS(=O)(=O)c2ccc(F)cc2)cc1S(=O)(=O)N1CCCCC1 | 14% | -0.5 | -3.0 | -2.3 | -1 | 36 | 15 | 1.3
Cn1cccc1C(=O)NC(=O)COC(=O)c1ccccc1Sc1ccccc1C#N | -18% | x | 0.0 | -4.2 | -1 | 2 | -8 | 0.4
O=C1C(SC(F)(F)C(F)F)=C(C(F)(F)F)OC2C3C=CC(C3)C12 (stereo not drawn) | 3% | x | -1.2 | 0.2 | -7 | -6 | -3 | 0.2
Cc1ccccc1C(=O)Nc1cccc(NC(=O)c2cccnc2)c1 | -8% | 7.6 | 0.7 | 1.4 | 6 | 1 | 1 | 0.4
COC(=O)c1nn(-c2nc(-c3cccc(OC)c3)cc(C(F)(F)F)n2)cc1[N+](=O)[O-] | -10% | x | -3.4 | -5.5 | 3 | 7 | 19 | -0.2
Cc1ccc(S(=O)(=O)NC(=O)Nc2nnc(C3CC3)s2)cc1 | 1% | x | -1.0 | -4.7 | -7 | -2 | 0 | 0.0
O=C(NC1=NCCS1)c1cc(Cl)ccc1Cl | x | -0.2 | 1.6 | 1.3 | 6 | -3 | -4 | -1.2
CC1(C)Cc2ccccc2C(/C(=N/O)C(N)=O)=N1 | 71% | x | 4.0 | 1.6 | -6 | -5 | -5 | 0.5
Cc1ccccc1C(=O)OCc1nnc(-c2ccc(Cl)cc2)o1 | 9% | -0.3 | x | -0.8 | -41 | -7 | -9 | -0.1
Cc1ccc(S(=O)(=O)NNC(=O)Nc2cccc(C)c2C)c(C)c1 | -3% | -0.1 | 0.7 | -0.8 | 5 | -5 | 3 | 0.4

Part of the list above in order of count of non-hydrogen atoms, ascending.
SMILES | Vif A3G | MLL AF4-AF9 inh | RanGTP-Imp inh | LANA-H2B inh | Calb FLC | Beta cell apopt | T cruzi inh | A1 inh
Cc1ccc(S(=O)(=O)NC(=O)Nc2nnc(C3CC3)s2)cc1 | 1% | x | -1.0 | -4.7 | -7 | -2 | 0 | 0.0
Cc1ccccc1C(=O)OCc1nnc(-c2ccc(Cl)cc2)o1 | 9% | -0.3 | x | -0.8 | -41 | -7 | -9 | -0.1
Cc1ccc(S(=O)(=O)NNC(=O)Nc2cccc(C)c2C)c(C)c1 | -3% | -0.1 | 0.7 | -0.8 | 5 | -5 | 3 | 0.4
CCOc1c(S(=O)(=O)NC2CC(C)(C)NC(C)(C)C2)ccc(Cl)c1Cl | x | -0.2 | 3.2 | 1.0 | 3 | -8 | -5 | 0.3
COC(=O)c1nn(-c2nc(-c3cccc(OC)c3)cc(C(F)(F)F)n2)cc1[N+](=O)[O-] | -10% | x | -3.4 | -5.5 | 3 | 7 | 19 | -0.2
Cc1ccccc1-n1nnnc1SCC(=O)Nc1ccc(S(=O)(=O)N2CCCC2)cc1 | -5% | x | 1.1 | -1.9 | 0 | 7 | 9 | -0.7
CCc1ccc2[nH]c(=O)c(C(c3nnnn3CCOC)N3CCN(c4ccc(F)cc4)CC3)cc2c1 (stereo not drawn) | 16%&9% | x | 2.5 | 4.8 | 24 | -6 | 11 | -0.2

Other compounds.
SMILES | Vif A3G | MLL AF4-AF9 inh | RanGTP-Imp inh | LANA-H2B inh | Calb FLC | Beta cell apopt | T cruzi inh | A1 inh
Cc1ccc(NC(CC(=O)c2ccccc2)C(=O)O)cc1Cl (stereo not drawn) | x | -1.5 | -0.4 | -5.7 | -10 | -1 | 1 | -3.5
CC1CCN(C(=O)CN(C)S(=O)(=O)c2cccc3nsnc23)CC1 | 29% | x | -3.3 | 3.2 | -6 | 2 | -7 | 0.3
COc1ccccc1-n1c(SCC(=O)O)nnc1-c1ccc(S(=O)(=O)N2CCCCC2)cc1 | -5%&2% | x | -2.0 | x | 19 | x | -3 | x
O=C(NN1C(=O)NC2(CCCCC2)C1=O)c1ccc(-c2ccc(Cl)cc2)o1 | -11% | 0.5 | x | 1.3 | x | 6 | x | 1.3
Cc1nnc(SCCn2c(N3CC(C)CC(C)C3)nc3c2c(=O)n(C)c(=O)n3C)s1 (stereo not drawn) | 14% | x | 1.2 | x | 8 | x | 1 | x
Clc1ccccc1Cn1nnc2c(Nc3ccccc3)ncnc21 | 12% | -18 | 2.8 | -3.0 | 0 | 1 | x | 0.0
Cc1nc(N2CCOCC2)nc(OC(C)C)c1[N+](=O)[O-] | x | -1.0 | -2.7 | -3.3 | 21 | 0 | 3 | -0.3
Cc1c(Cl)cccc1NC(=S)NC1CCN(Cc2ccccc2)CC1 | x | u | u | 3.6 | 7 | 3 | 43 | 0.2
COc1cc(NS(=O)(=O)c2ccc(NS(=O)(=O)c3ccccc3)cc2)nc(OC)n1 | -1% | x | -2.5 | 1.3 | 5 | -6 | 0 | -0.4
OCCCn1c(CCNc2nc(-c3ccc(Cl)cc3)cs2)nc2cc(C(F)(F)F)ccc21 | x | x | -4.6 | -1.4 | 7 | 1 | -8 | -0.5
CN(C)S(=O)(=O)N1CCN(c2ccnc3cc(Cl)ccc23)CC1 | 0% | x | -7.5 | -3.7 | 24 | x | 7 | 0.7
O=C(CSc1nnc(Cc2ccc(Cl)cc2)o1)Nc1ccccc1 | 73% | -0.7 | -1.7 | 1.4 | -1 | -1 | -2 | -0.8
CCOC(=O)N1CCC(NC(=O)CCc2ccccc2)CC1 | x | -1.5 | -0.9 | 0.3 | -12 | -6 | 1 | 0.1
C/C(N)=C(/C#N)C(=O)CSc1nc2ccccc2n1CC(C)C | 3% | -0.5 | -4.7 | -2.7 | -7 | 2 | 6 | 0.9
O=C(NCc1ccco1)c1cccc(N2CCCC2=O)c1 | 6% | x | 1.6 | -2.6 | -3 | -8 | -3 | 0.0
CCN1C(=O)CC(N2CCOCC2)C1=O (stereo not drawn) | 1% | x | -1.7 | 2.2 | -7 | -6 | -15 | -0.7
COc1ccc(CNC(=O)c2ccc(Br)s2)cc1OC | x | -0.7 | -0.8 | -0.2 | -11 | 2 | -4 | 0.7
